PrP UTR inh: suppresses PrP 5' UTR mRNA reporter expression. cell-based PrP 5' UTR mRNA reporter, plate reader. actives 0.35% (n = 340,000). inhibition, % (test concentration not listed);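 active = every replicate at 50% or more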;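 note: 0 = median of the neutral control wells; tested in H4 reporter cells; numbers are from one replicate; inactives centre near -14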
Bead autofluor: flagged as autofluorescent in microsphere protease counterscreen. compound autofluorescence counterscreen, microsphere flow cytometry; active compounds read high. fluorescence intensity (no concentration beside the values). AID 624483. actives 3.1% (n = 360,000);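 active = at least 3 SD above the mean of all compounds, about 16000 in these data; inconclusive = too few beads counted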;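 note: 100 nL of 1 mM stock went into each well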
Sa RN4220 lethal: kills Staphylococcus aureus RN4220 | AID 1259311 | actives 0.33% (n = 330,000) | inhibition, % (concentration not given with the values) | S. aureus RN4220 growth, OD600, 16 h;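 active = z-score of -3 or lower and OD600 up to 0.18 on both plates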;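 note: plate controls were untreated cells for no effect and reference antibiotic for full effect; stock transfer was 100 nL into about 80 µL; one replicate is shown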
Mtb hypoxia inh: inhibitors of hypoxia-regulated fluorescent reporter in Mycobacterium tuberculosis; actives 0.1% (n = 300,000); M. tuberculosis hypoxia-regulated fluorescent reporter, fluorescence; fluorescence inhibition, % (concentration not given with the values);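 active = 35 to 45% if threefold the growth effect, above 45% if 1.5-fold the growth effect; inactive = the rest, general growth blockers included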;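 note: wells of about 50 µL received 100 nL stock; 0% = vehicle wells and 100% = reference inhibitor wells; whole bacteria with a GFP reporter of the hypoxia response; strong numbers were not always called active; many hits fall short of the cut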
Sa ugtP lethal: growth inhibition of S. aureus ugtP deletion strain; S. aureus RN4220 ugtP deletion, OD600 growth, 16 h; some inactives read as strong as hits; growth inhibition, % (test concentration not listed); actives 0.54% (n = 330,000);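 active = z-score under -3 and OD600 up to 0.15 on both plates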;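 note: plate controls were untreated wells for no effect and antibiotic for full effect; wells of about 80 µL received 100 nL stock; the first replicate is given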
BJeLR viability: kills HRASV12-expressing BJeLR cells. BJeLR (HRASV12) viability, CellTiter-Glo ATP luminescence, 48 h; reference of the scale not given here. actives 0.17% (n = 300,000). inhibition, % (test concentration not listed). AID 1554;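 active = replicate mean above 50%; inconclusive = above 50% but judged a plate artefact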;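 note: 50 nL library stock added to about 25 µL; numbers are from one replicate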
Mtb hypoxia inh growth: second read-out of Mtb hypoxia inh, no call of its own (marks repeat the call); growth inhibition, %; measured here: M. tuberculosis growth (absorbance);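 0% = vehicle and 100% = reference antibiotic; read after six days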
The depositor's hits bear a star; ? = inconclusive; . = no result given; & = joins results of further samples.

mol | PrP UTR inh | Bead autofluor | Sa RN4220 lethal | Mtb hypoxia inh | Mtb hypoxia inh growth | Sa ugtP lethal | BJeLR viability
COCCNC(=O)c1ccccc1NC(=O)Cc1ccccc1 | -11 | 3415 | 3.5 | 11 | 7 | 7 | 3
Cc1ccc(C)c(OCCOCCN2CCOCC2)c1 | -33 | 5064 | 3.6 | 4 | -1 | 1 | 4
CN=c1scc(-c2c[nH]c3ccccc23)n1C | -9 | 5183 | 3.7 | -8 | 8 | -2 | .
CN1CCN(c2nnc(-c3ccccc3)c(-c3ccccc3)n2)CC1 | . | . | -2.6 | 0 | 10 | 36 | 1
CC(C)(O)C#Cc1ccc(C(=O)N2CCC(CCC(=O)NC3CC3)CC2)cc1 | -10 | ? | 1.3 | 12 | -1 | 1 | 1
COc1ccc(S(=O)(=O)N(C)CC(=O)N2CCCC2)cc1 | -34 | 4127 | 6.9 | 10 | 0 | 15 | -7
CC(C)CCN1CCC(Cc2ccccc2)(NC(=O)c2ccccc2)C1=O (configuration not stated) | -14 | 3699 | 5.8 | 13 | 5 | 1 | .
N#Cc1ccc(COC(=O)Cn2nnc(-c3ccccc3)n2)cc1 | -22 | 2299 | 3.8 | . | . | 15 | -3
CC(c1nc2ccccc2c(=O)[nH]1)N1CCN(C)CC1 (configuration not stated) | -25 | 4439 | 1.4 | . | . | 9 | -2
O=C(N/N=C\c1cn[nH]c1-c1ccccc1)c1cccs1 | -9 | 2344 | . | . | . | . | 4
CN(C)C1=NCCN1CCc1ccccc1 | -2 | 3969 | 4.6 | 6 | 8 | 0 | .
COC(=O)c1cccc(NC(=O)/C=C/c2ccc([N+](=O)[O-])cc2)c1 | -5 | 2556 | -0.2 | 6 | 1 | -11 | -1
Cc1csc(NC(=O)CN2C(=O)c3ccccc3S2(=O)=O)n1 | -18 | 11088 | 6.4 | 9 | 1 | 12 | -1
O=C(O)CCC(=O)Nc1ccc(N2CCCCC2)c(C(=O)O)c1 | -8 | 3665 | 1.5 | . | . | 6 | -4
COc1ccc(N=C2SC(=Cc3ccc(C)s3)C(=O)N2CC(C)C)cc1 | . | . | -2.9 | -28 | -9 | 48 | .
O=C(NCCCl)Nc1ccccc1OCCOc1ccccc1NC(=O)NCCCl | -8 | 3807 | -3.3 | -12 | -15 | 0 | 5
Cc1ccc(S(=O)(=O)NCCn2nc(C)nc2C)cc1 | -14 | 5083 | 4.0 | 6 | -1 | 2 | -9
COc1ccc(-c2noc(CN(C)S(=O)(=O)c3ccc(C)cc3)n2)cc1 | -10 | 9167 | 4.3 | 1 | 3 | -6 | 1
CC(C)Cc1nnc(NC(=O)CCC(=O)Nc2ccc(F)cc2)s1 | -12 | . | 3.8 | -11 | -5 | 14 | -5
O=C(NC1CCCC(C(F)(F)F)C1)c1ccc([N+](=O)[O-])o1 (configuration not stated) | -35 | 4288 | 10 | 15 | 38 | 5 | .
COc1ccccc1OCC(O)Cn1c(=N)n(CCN2CCCCC2)c2ccccc21 (configuration not stated) | -28 | 10832 | 7.7 | 1 | 7 | -9 | -1
CC(C)NC(=O)[C@@H]1CSC2c3ccccc3C(=O)N21 (some centres not stated) | -18 | 4003 | 0.9 | 6 | -1 | 7 | 1
COc1ccc(Cl)cc1C(=O)n1nc(C)cc1C | -4 | 3268 | 20 | -5 | -7 | 15 | -2
O=C(NCCOc1ccc(Cl)cc1)c1ccc2c(c1)OCCO2 | -44 | 4589 | -1.1 | 2 | -8 | -1 | .
COc1ccc(OC)c(S(=O)(=O)N2CCC(C(=O)NC3CCCCCC3)CC2)c1 | -21 | 3561 | -3.3 | 4 | 2 | -1 | 16

Results in Mtb hypoxia inh, Bead autofluor and Mtb hypoxia inh growth, for some of the entries so far:
mol	Mtb hypoxia inh	Bead autofluor	Mtb hypoxia inh growth
O=C(O)CCC(=O)Nc1ccc(N2CCCCC2)c(C(=O)O)c1	.	3665	.
COC(=O)c1cccc(NC(=O)/C=C/c2ccc([N+](=O)[O-])cc2)c1	6	2556	1
CN=c1scc(-c2c[nH]c3ccccc23)n1C	-8	5183	8
CC(C)(O)C#Cc1ccc(C(=O)N2CCC(CCC(=O)NC3CC3)CC2)cc1	12	?	-1
COc1ccc(S(=O)(=O)N(C)CC(=O)N2CCCC2)cc1	10	4127	0
O=C(NCCOc1ccc(Cl)cc1)c1ccc2c(c1)OCCO2	2	4589	-8

Entries shown so far with two or more sulfur atoms, in the order listed:
mol | PrP UTR inh | Bead autofluor | Sa RN4220 lethal | Mtb hypoxia inh | Mtb hypoxia inh growth | Sa ugtP lethal | BJeLR viability
Cc1csc(NC(=O)CN2C(=O)c3ccccc3S2(=O)=O)n1 | -18 | 11088 | 6.4 | 9 | 1 | 12 | -1
COc1ccc(N=C2SC(=Cc3ccc(C)s3)C(=O)N2CC(C)C)cc1 | . | . | -2.9 | -28 | -9 | 48 | .

The list continues.
mol | PrP UTR inh | Bead autofluor | Sa RN4220 lethal | Mtb hypoxia inh | Mtb hypoxia inh growth | Sa ugtP lethal | BJeLR viability
Cn1c(-c2ccc(C=O)s2)nc2c3ccccc3c3ccccc3c21 | 2 | 2883 | -7.2 | . | . | 15 | 0
CC(C)C(=O)NCCc1nc2ccccc2n1C | -20 | 4556 | 4.6 | . | . | 4 | -11
COC(=O)c1ccc(NC(=O)CN2CCC(NC(=O)c3ccco3)CC2)cc1 | -16 | 2387 | 3.7 | 16 | -3 | 10 | -3
Cc1ccc(S(=O)(=O)Nc2nc(C)c(C(=O)N/N=C/c3ccccc3)s2)cc1 | -24 | 2444 | . | . | . | . | -1
CC(C)(C)c1cc2cccnc2n1Cc1cccc(F)c1 | -44 | 2644 | 3.9 | . | . | -3 | 9
O=C(Nc1ccc(F)cc1)c1ccc(CSc2ccccc2)o1 | -7 | 2124 | 1.9 | 7 | 8 | 9 | 10
Cc1ccc(-n2c(C)nn(CCOc3ccccc3)c2=O)cc1 | -79 | 3355 | 7.5 | 15 | 9 | 3 | 0
Cc1cccc(C)c1NC(=O)CSc1nc2c([nH]1)c(=O)n(C)c(=O)n2C | -27 | 5959 | 4.3 | -13 | 1 | 13 | -12
Cc1onc(-c2ccccc2Cl)c1C(=O)N(C)CC(=O)Nc1ccc(F)c(F)c1F | -6 | 6596 | -0.6 | 12 | 2 | -9 | -1
Cc1ccc(-c2nc(C)sc2CC(=O)OCC(=O)Nc2cccc([N+](=O)[O-])c2)cc1 | -9 | 2765 | -4.2 | 6 | 4 | 27 | 5
N#Cc1c(NC(=O)c2cc([N+](=O)[O-])ccc2N2CCOCC2)sc2c1CCCC2 | -17 | 2606 | 0.3 | 8 | 6 | -18 | 1
CNS(=O)(=O)c1ccc(NC(=O)c2cncc(Br)c2)cc1 | -28 | 3808 | 2.3 | 6 | 11 | -7 | 2
CCc1noc(C)c1C(=O)Nc1nc(-c2cc(OC)ccc2OC)cs1 | -24 | 6592 | 23 | 1 | -4 | 2 | 7
CC(C)CC(CSc1ccccc1)N1CCN(C)CCC1=O (configuration not stated) | . | . | 3.2 | 8 | 7 | 0 | .
C=CCNC(=O)CSc1nnc(-c2ccncc2)n1CCc1ccccc1 | -6 | 3284 | 2.2 | . | . | -2 | 4
C=CCNC(=O)c1ccccc1Cl | -29 | 8181 | 3.1 | 7 | 0 | 6 | .
CS(=O)(=O)N1CCC(C(=O)NCc2ccc(F)cc2)CC1 | -23 | 4613 | 4.1 | 6 | 5 | 7 | 4
O=C(CSc1n[nH]c(-c2ccncc2)n1)NCCc1ccccc1 | -1 | 2758 | 1.6 | . | . | 0 | -2
O=c1c(-c2c(O)cc(O)c3c(=O)cc(-c4ccc(O)cc4)oc23)c(-c2ccc(O)cc2)oc2cc(O)cc(O)c12 | -8 | 5182 | -2.1 | . | . | 14 | .
Clc1ccc(N2CC2c2ccncc2)cc1 (configuration not stated) | -31 | 4128 | 3.3 | -10 | 4 | 11 | -8
O=C(Nc1nc2ccccc2n1CCN1CCOCC1)c1ccc(Cl)cc1 | -13 | 3368 | -2.1 | -7 | -1 | -7 | 7
COc1cccc2cc(C(N)=O)/c(=N\NC(=O)c3ccccc3)oc12 | -19 | 3033 | . | . | . | . | 13
Cc1nc(-c2ccc(F)cc2)c(CC(=O)N(C)CC(=O)Nc2ccc(Br)cc2C)s1 | 1 | 6220 | 0.1 | 1 | 15 | -3 | 2
CCOC(=O)N1CCN(C(=O)CCS(=O)(=O)c2ccc3c(c2)CC(C)N3C(=O)CC)CC1 (configuration not stated) | -9 | 5900 | -0.6 | -11 | 3 | 1 | -1
COc1ccc(C(CNC(=O)c2ccc(NS(=O)(=O)c3ccccc3)cc2)N2CCOCC2)cc1 (configuration not stated) | -27 | 6846 | 1.8 | -1 | 0 | 4 | .
NS(=O)(=O)c1ccc(NC(=O)C2(c3ccccc3)CCCC2)cc1 | -51 | 2630 | 2.6 | 3 | -2 | 3 | 7
COc1ccc(C(C(=O)NC2CCCC2)N(CCN2CCOCC2)C(=O)c2ccc(OC)c(OC)c2)cc1 (configuration not stated) | -80 | 9945 | 2.8 | 4 | 10 | -2 | -8
COc1cc(OC)cc(C(=O)NC2CC(C)(C)NC(C)(C)C2)c1 | 0 | . | 0.6 | 6 | -3 | 2 | -3
COc1ccc(OC)c(NC(=O)c2ccccc2N(Cc2ccccc2)S(C)(=O)=O)c1 | -15 | 3217 | 8.0 | 5 | 9 | 3 | 2
COc1ccc(C(=O)N2c3cc4c(cc3C(C)=CC2(C)C)OCO4)cc1 | -22&-72 | 2856 | -5.0 | . | . | 44 | 8
CCCCc1nc(C(N)=O)c2[nH]c(=O)n(-c3ccc(OCC)cc3)c2n1 | -8 | 5052 | 1.8 | 8 | 8 | 2 | -13
CN1CCN(CC(=O)Nc2cc(S(=O)(=O)N3CCOCC3)ccc2Cl)CC1 | -17 | 6576 | 3.0 | -1 | 8 | 3 | -2
COc1ccccc1C(=O)NCCC(=O)NCC(c1ccccc1OC)N1CCCC1 (configuration not stated) | -13 | 4939 | 3.6 | 6 | 2 | -6 | 4
CC1CN(c2nc3ccccn3c(=O)c2/C=C(\C#N)S(=O)(=O)c2ccccc2)CC(C)O1 (configuration not stated) | -16 | 4864 | 5.2 | 13 | 3 | 4 | -1
S=C1N(c2ccccc2)C(c2ccccc2)N2CCCN12 (configuration not stated) | -12 | 4222 | 2.2 | . | . | 1 | 9
O=C(COc1ncnc2sccc12)Nc1ccc2c(c1)OCCO2 | -14 | 3865 | 3.2 | 8 | 9 | -14 | -9
Cc1csc(NC(=O)CNC(=O)OCc2ccccc2)n1 | -28 | 5128 | 7.0 | 1 | 10 | -10 | -6
CC(C)OC(=O)c1cc2c(ccn2C)n1CC(=O)N1CCC(Cc2ccccc2)CC1 | -24 | 3307 | -3.5 | 3 | 5 | -2 | -3
CCN(CC)S(=O)(=O)c1cc(C(=O)OCC(=O)Nc2cccc(C)c2C)ccc1F | -8 | 1935 | 2.4 | -5 | 10 | 4 | -13
CC(C)C(NC(=O)c1ccccc1F)C(=O)NCc1ccccc1 (configuration not stated) | -15 | 5870 | 3.8 | 14 | 6 | 13 | 4

Individual results from the results shown.
Mtb hypoxia inh, CC(C)OC(=O)c1cc2c(ccn2C)n1CC(=O)N1CCC(Cc2ccccc2)CC1 is entered as 3
Mtb hypoxia inh growth, COc1ccc(OC)c(NC(=O)c2ccccc2N(Cc2ccccc2)S(C)(=O)=O)c1 is entered as 9

Reprinted at random: four entries already listed
mol | PrP UTR inh | Bead autofluor | Sa RN4220 lethal | Mtb hypoxia inh | Mtb hypoxia inh growth | Sa ugtP lethal | BJeLR viability
S=C1N(c2ccccc2)C(c2ccccc2)N2CCCN12 (configuration not stated) | -12 | 4222 | 2.2 | . | . | 1 | 9
CC(C)OC(=O)c1cc2c(ccn2C)n1CC(=O)N1CCC(Cc2ccccc2)CC1 | -24 | 3307 | -3.5 | 3 | 5 | -2 | -3
CCCCc1nc(C(N)=O)c2[nH]c(=O)n(-c3ccc(OCC)cc3)c2n1 | -8 | 5052 | 1.8 | 8 | 8 | 2 | -13
COc1ccc(OC)c(NC(=O)c2ccccc2N(Cc2ccccc2)S(C)(=O)=O)c1 | -15 | 3217 | 8.0 | 5 | 9 | 3 | 2

Screens: PubChem BioAssay, several laboratories
